Compound activity from PubChem.
miR-21 FLuc = qHTS Assay for Modulators of miRNAs and/orActivators of miR-21. HeLa miR-21 FLuc reporter, luciferase, 48 h. Potency, µM (highest dose often 38.3 µM), inactives show at the highest dose reporter change, positive = more light. 340,000 tested, under 10 active; active = well fitted rising curve with a large enough effect; inconclusive = small, poorly fitted or top-dose-only effect; inactive = no such curve, though single readings can be large or run the other way;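 note: % of control where 0% means no effect; miR-21 action dims this reporter so a rising signal means less miR-21 action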
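Using DMEM plus 10% FBS, HeLa miR-21-FLuc cells are incubated with test compounds (final up to about 40uM) for 48 hours; firefly luciferase signal is then imaged following reagent-mediated lysis.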
The depositor's hits bear a star; [ ] = another dose, or the depositor's remark. Not all compounds are listed; rates above refer to the full screens.

Start of the data: the first 13 compounds, ahead of the listing:
What do the screens show for `Cc1cc(-c2ccc(C)c(S(=O)(=O)N3c4ccccc4CC3C)c2)on1` (stereo not drawn)?
miR-21 FLuc: 18%

What do the screens show for `COc1cccc(NC(=O)CCNC(=O)Cn2cnc3ccccc3c2=O)c1`?
miR-21 FLuc: -6%

How did O=C(Nc1ccnn1C1CCN(Cc2cc3ccccc3[nH]2)CC1)C1CCOC1 (stereo not drawn) do in these assays?
miR-21 FLuc: 2%

What do the screens show for `O=C(CSc1nc2c([nH]c3ccccc32)c(=O)n1-c1ccc(Cl)cc1)NCC1CCCO1` (stereo not drawn)?
miR-21 FLuc: -8%

What do the screens show for `Cc1c(Cl)cccc1NC(=O)c1oc2ccc(S(=O)(=O)N3CCCCCC3)cc2c1C`?
miR-21 FLuc: 0%

What do the screens show for `COc1ccc(NC(=O)CSc2nc(-c3ccc(F)cc3)c3cccc(C)c3n2)cc1`?
miR-21 FLuc: 8%

How did Cc1ccc2c(=O)cc(C(=O)Nc3sc4c(c3C(=O)NCc3cccnc3)CCCC4)oc2c1 do in these assays?
miR-21 FLuc: 1%

What do the screens show for `CCOC(=O)c1ccc(-c2ccc(/C=C(\C#N)C(=O)Nc3ccc(C)cc3)o2)cc1`?
miR-21 FLuc: -19%

What do the screens show for `COc1ccc(C(=O)NCCc2csc(-c3ccc(Cl)cc3)n2)cc1`?
miR-21 FLuc: 1%

Results for Cc1ccc(CN2CCC(CNC(=O)c3cc4ccc5cccnc5c4[nH]3)CC2)cc1 ?
miR-21 FLuc: inconclusive

What do the screens show for `Cc1cc(C)c(NC(=O)CCS(=O)(=O)c2cc3c(cc2Cl)NC(=O)CO3)c(C)c1`?
miR-21 FLuc: -7%

How did CCCCN(CC)Cc1ccc(CNS(=O)(=O)c2cc3c(cc2Cl)NC(=O)CO3)o1 do in these assays?
miR-21 FLuc: -8%

Results for CSc1ccc(CNC(=O)c2ccccc2NC(=O)c2nsc3ccccc23)cc1 ?
miR-21 FLuc: -10%

This part in full, previewed entries included:
What do the screens show for `Cc1cc(-c2ccc(C)c(S(=O)(=O)N3c4ccccc4CC3C)c2)on1` (stereo not drawn)?
miR-21 FLuc: 18%

What do the screens show for `COc1cccc(NC(=O)CCNC(=O)Cn2cnc3ccccc3c2=O)c1`?
miR-21 FLuc: -6%

How did O=C(Nc1ccnn1C1CCN(Cc2cc3ccccc3[nH]2)CC1)C1CCOC1 (stereo not drawn) do in these assays?
miR-21 FLuc: 2%

What do the screens show for `O=C(CSc1nc2c([nH]c3ccccc32)c(=O)n1-c1ccc(Cl)cc1)NCC1CCCO1` (stereo not drawn)?
miR-21 FLuc: -8%

What do the screens show for `Cc1c(Cl)cccc1NC(=O)c1oc2ccc(S(=O)(=O)N3CCCCCC3)cc2c1C`?
miR-21 FLuc: 0%

What do the screens show for `COc1ccc(NC(=O)CSc2nc(-c3ccc(F)cc3)c3cccc(C)c3n2)cc1`?
miR-21 FLuc: 8%

How did Cc1ccc2c(=O)cc(C(=O)Nc3sc4c(c3C(=O)NCc3cccnc3)CCCC4)oc2c1 do in these assays?
miR-21 FLuc: 1%

What do the screens show for `CCOC(=O)c1ccc(-c2ccc(/C=C(\C#N)C(=O)Nc3ccc(C)cc3)o2)cc1`?
miR-21 FLuc: -19%

What do the screens show for `COc1ccc(C(=O)NCCc2csc(-c3ccc(Cl)cc3)n2)cc1`?
miR-21 FLuc: 1%

Results for Cc1ccc(CN2CCC(CNC(=O)c3cc4ccc5cccnc5c4[nH]3)CC2)cc1 ?
miR-21 FLuc: inconclusive

What do the screens show for `Cc1cc(C)c(NC(=O)CCS(=O)(=O)c2cc3c(cc2Cl)NC(=O)CO3)c(C)c1`?
miR-21 FLuc: -7%

How did CCCCN(CC)Cc1ccc(CNS(=O)(=O)c2cc3c(cc2Cl)NC(=O)CO3)o1 do in these assays?
miR-21 FLuc: -8%

Results for CSc1ccc(CNC(=O)c2ccccc2NC(=O)c2nsc3ccccc23)cc1 ?
miR-21 FLuc: -10%

How did CCc1ccc(NC(=O)Cn2c(=O)n(-c3cc(OC)c(OC)c(OC)c3)c(=O)c3ccccc32)cc1 do in these assays?
miR-21 FLuc: 0%

What do the screens show for `Cc1cc2c(cc1NC(=O)c1ccccc1Cl)n(C)c(=O)c(=O)n2C`?
miR-21 FLuc: 4%

How did Cc1ccc(-c2onc(C)c2C)cc1S(=O)(=O)NC1CCCCC1 do in these assays?
miR-21 FLuc: 16%

Results for Cc1ccccc1C(=O)NCC(c1cccnc1)N1CCc2ccccc21 (stereo not drawn) ?
miR-21 FLuc: 11%

What do the screens show for `COc1ccc(-n2c(SCC(=O)Nc3ccc4c(c3)OCO4)nc3c([nH]c4ccccc43)c2=O)cc1`?
miR-21 FLuc: -2%

Results for COc1ccc([C@]23Cc4c(ccc5ccccc45)C(O2)C2=C(CCCC2=O)O3)cc1 ?
miR-21 FLuc: 1%[7.66 µM]

How did COc1cccc(-n2c(SCC(=O)Nc3cccc(C)c3)nc3c([nH]c4ccccc43)c2=O)c1 do in these assays?
miR-21 FLuc: 11%

How did CC(C)(C)c1ccc(C(=O)NCC(c2ccc(Cl)cc2)N2CCOCC2)cc1 (stereo not drawn) do in these assays?
miR-21 FLuc: inconclusive

How did COc1ccc(CCNc2ncnc3c2cnn3-c2ccc(C)c(Cl)c2)cc1 do in these assays?
miR-21 FLuc: -22%

How did COc1ccc(Br)cc1CNC(=O)c1cnc2sc(N3CCCCCC3)nn2c1=O do in these assays?
miR-21 FLuc: -9%

Results for O=C(N/N=C/c1cc([N+](=O)[O-])ccc1O)c1cccc2ccccc12 ?
miR-21 FLuc: 21%

Results for COc1ccccc1CN(Cc1ccco1)c1cnc(S(C)(=O)=O)nc1C(=O)Nc1ccccc1Cl ?
miR-21 FLuc: 5%

Results for Cc1ccc(NC(=O)CSc2nc3ccc(NC(=O)c4cccs4)cc3s2)c(C)c1 ?
miR-21 FLuc: 16%

How did CC(C)OC(=O)c1c(NC(=O)C2c3ccccc3Oc3ccccc32)sc2c1CCCC2 do in these assays?
miR-21 FLuc: -13%

What do the screens show for `O=C(Cn1ncc2c(=O)oc3ccccc3c21)NCc1ccc(Cl)cc1`?
miR-21 FLuc: -5%

How did CN(C(=O)CSc1cn(CC(=O)N2CCCC2)c2ccccc12)c1ccccc1 do in these assays?
miR-21 FLuc: -10%

How did COc1ccc(CC(=O)NCc2nc3cccnc3n2Cc2ccccc2)cc1 do in these assays?
miR-21 FLuc: -4%

How did COc1cc(/C=C2/C(=N)N3C(=NC2=O)SN=C3S(C)(=O)=O)ccc1OS(=O)(=O)c1ccccc1 do in these assays?
miR-21 FLuc: -14%

What do the screens show for `Cc1cccn2c(=O)c(/C=C(\C#N)c3nc4ccccc4s3)c(Oc3ccc(F)cc3)nc12`?
miR-21 FLuc: -1%

How did CS(=O)(=O)N(Cc1ccccc1)c1ccc(C(=O)Nc2cccc(Cl)c2)cc1 do in these assays?
miR-21 FLuc: 19%

What do the screens show for `CCc1cccc(N2C(=O)CS(=O)(=O)C23C(=O)N(Cc2ccc(F)cc2)c2ccc(C)cc23)c1` (stereo not drawn)?
miR-21 FLuc: 15%

Results for O=C(Nc1ccc(S(=O)(=O)Nc2ncccn2)cc1)c1cccc(Cl)c1 ?
miR-21 FLuc: -7%

How did CCOc1ccccc1NC(=O)C(C)Sc1cc(-c2ccccc2)nc(C)n1 (stereo not drawn) do in these assays?
miR-21 FLuc: 0%

What do the screens show for `CCOc1cc(C(=O)Nc2ccc(-c3nc4cc(C)ccc4o3)cc2)cc(OCC)c1OCC`?
miR-21 FLuc: -14%

Results for Cc1ccc(C)c(N2CCN(c3ccc(NC(=O)c4cccs4)cc3C(=O)O)CC2)c1 ?
miR-21 FLuc: -3%

How did Cc1cc(O)c(C(c2ccccc2Cl)N2CCCCC2)c(=O)n1Cc1ccco1 (stereo not drawn) do in these assays?
miR-21 FLuc: 3%

Results for Cn1nccc1C(=O)NCc1ccc2c(c1)CCN2C(=O)c1ccccc1 ?
miR-21 FLuc: inconclusive

What do the screens show for `Cc1ccc(C(=O)CSc2nc(-c3ccccc3)nc3c2CCCC3)cc1`?
miR-21 FLuc: -2%

Results for O=C(Cn1c(=O)n(Cc2ccc(C(=O)NCc3ccc4c(c3)OCO4)cc2)c(=O)c2ccccc21)Nc1ccccc1F ?
miR-21 FLuc: -4%

What do the screens show for `CC(=O)N1CCC(N(Cc2ccc(C)o2)C(=O)Nc2cccc(C(F)(F)F)c2)CC1`?
miR-21 FLuc: 1%

What do the screens show for `O=C(CSc1nnc(-c2ccncc2)n1-c1ccccc1)Nc1ccc(Br)cc1`?
miR-21 FLuc: 4%

What do the screens show for `COc1ccc(CNC(=O)C2CCN(S(=O)(=O)c3cccc4nonc34)CC2)cc1OC`?
miR-21 FLuc: 1%

Results for Cc1ccccc1NC(=O)CSC1=Nc2ccccc2C2=NC(Cc3ccccc3)C(=O)N12 (stereo not drawn) ?
miR-21 FLuc: -4%

Results for Cc1ccc(C)c(CN2C(=O)c3ccccc3S(=O)c3ccc(C(=O)NCc4ccccc4)cc32)c1 (stereo not drawn) ?
miR-21 FLuc: 9%

How did O=C(c1cccc(Cl)c1)N1CCN(CCc2ccccn2)CC1 do in these assays?
miR-21 FLuc: 2%

Results for Cc1ccc(-c2nnc(Nc3ccc(F)cc3)c3ccccc23)cc1S(=O)(=O)N1CCN(C)CC1 ?
miR-21 FLuc: 3%

How did Cc1nn(CCC(=O)Nc2cc(F)ccc2F)c(=O)c2nn(-c3ccccc3)c(C)c12 do in these assays?
miR-21 FLuc: 21%

What do the screens show for `CCn1c(=N)c(C(=O)NCC2CCCO2)cc2c(=O)n3cc(C)ccc3nc21` (stereo not drawn)?
miR-21 FLuc: 0%

How did CC1=C(C(=O)OC2CCCC2)C(c2ccccc2C(F)(F)F)CC(=O)N1 (stereo not drawn) do in these assays?
miR-21 FLuc: 14%

What do the screens show for `Cc1cc(C)cc(NC(=O)Cn2c(=O)n(Cc3ccc4c(c3)OCO4)c(=O)c3oc4ccccc4c32)c1`?
miR-21 FLuc: 0%

How did COc1cccc(-c2ccc3c(N)c(C(=O)Nc4ccc(Cl)cc4F)sc3n2)c1 do in these assays?
miR-21 FLuc: -21%

How did Cc1ccc2c(=O)c(C(=O)c3ccc(F)cc3)cn(CC(=O)NC3CCCCC3)c2n1 do in these assays?
miR-21 FLuc: -2%

What do the screens show for `N#Cc1cccc(NC(=O)C2CCN(c3cnccn3)CC2)c1`?
miR-21 FLuc: -3%

What do the screens show for `COc1ccc(OC)c(NC(=O)CSc2nccn2-c2cc(C)cc(C)c2)c1`?
miR-21 FLuc: 2%

What do the screens show for `Cc1ccc(NS(=O)(=O)c2ccc3c(c2)CCCN3C(=O)C2CCC2)c(C)c1`?
miR-21 FLuc: 8%

Results for CCNC(=O)c1cnc2c(-c3ccccc3)c(C)nn2c1C ?
miR-21 FLuc: -9%

What do the screens show for `CC(=O)c1cccc(NC(=O)C2CCN(c3ncnc4c3nc3n4CCCCC3)CC2)c1`?
miR-21 FLuc: 5%

Results for CNC(=O)C1CCC(Cn2c(=O)c3sccc3n(CC(=O)Nc3cc(F)ccc3F)c2=O)CC1 (stereo not drawn) ?
miR-21 FLuc: -1%

What do the screens show for `CCCOc1ccc(Cn2c(=O)sc3ccccc32)cc1`?
miR-21 FLuc: -12%

Results for CCCSCCCNC(=O)C1CCCN(C(=O)c2cnn(-c3ccccc3)c2-n2cccc2)C1 (stereo not drawn) ?
miR-21 FLuc: 6%

Results for CN(C(=O)CSc1nc2ccccc2[nH]1)c1ccc(F)cc1 ?
miR-21 FLuc: -20%

Results for Cc1ccc(C(=O)Nc2cccc(C(=O)OCc3cc(=O)n4c5c(sc4n3)CCCC5)c2)cc1 ?
miR-21 FLuc: -39%

Results for CCC(C)NC(=O)c1ccc2c(c1)nc1n2CCCCC1 (stereo not drawn) ?
miR-21 FLuc: -1%

What do the screens show for `CSc1ccc(NC(=O)Cn2nnnc2-c2ccccc2F)cc1`?
miR-21 FLuc: -5%

Results for CC(C)COc1ccc(C(=O)Nc2cc(-c3ccccc3)no2)cc1 ?
miR-21 FLuc: -58%

Results for CCOc1ccc(-c2cc(C)n3nc(C(=O)Nc4cc(Cl)ccc4O)cc3n2)cc1 ?
miR-21 FLuc: -3%

What do the screens show for `CCOC(=O)CSc1nc2c([nH]c3ccccc32)c(=O)n1-c1ccc(OCC)cc1`?
miR-21 FLuc: 4%

What do the screens show for `Cn1c(=NC(=O)c2ccc(S(=O)(=O)N3CCCC3)cc2)sc2cc(F)ccc21`?
miR-21 FLuc: -5%

How did CC1CCN(S(=O)(=O)c2ccc(C(=O)Nc3sc4c(c3C(N)=O)CC(C)(C)NC4(C)C)cc2)CC1 do in these assays?
miR-21 FLuc: -8%

How did CC(C)NC(=O)Cn1nc(N2CCN(c3ccccc3)CC2)ccc1=O do in these assays?
miR-21 FLuc: 0%

How did CC(=O)N1CCc2c(sc(NC(=O)CSc3ccc(C)cc3)c2-c2nc3ccccc3s2)C1 do in these assays?
miR-21 FLuc: 4%

Results for Cc1cc2oc(C(=O)Nc3ccc(S(=O)(=O)N4CCC(C)CC4)cc3)cc(=O)c2cc1C ?
miR-21 FLuc: -5%

Results for Cc1ccc(CNC(=O)C(C)n2nc(C)n3c(cc4sccc43)c2=O)cc1 (stereo not drawn) ?
miR-21 FLuc: -3%

What do the screens show for `COc1ccc(S(=O)(=O)NC(C)(C)CO)cc1-c1nnc2c3ccccc3c(C)nn12`?
miR-21 FLuc: -35%

Results for COC(=O)c1cc2oc3ccccc3c2n1Cc1nc(-c2cccc(Cl)c2)oc1C ?
miR-21 FLuc: -7%

What do the screens show for `CCOC(=O)c1ccc(NC(=O)Cn2c(=O)cc(C(F)(F)F)c3c(C)nn(C)c32)cc1`?
miR-21 FLuc: 0%

Results for CCC1CCCCN1CCCNC(=O)c1ccc2c(c1)N(Cc1ccccc1)C(=O)c1ccccc1S2(=O)=O (stereo not drawn) ?
miR-21 FLuc: -13%

How did COc1ccc(NC(=O)c2c(C)oc3ccc(O)c(CN4CCN(C)CC4)c23)cc1Cl do in these assays?
miR-21 FLuc: -13%

Results for Cc1ccc(Nc2c3c(nc4nc(-c5cccs5)nn24)CCCC3)cc1F ?
miR-21 FLuc: 8%
